# 2A StopGo: lowers the luciferase signal of an FMDV 2A StopGo reporter. human cells with a luciferase reporter of 2A StopGo recoding; control for the full effect not named in the record. Potency, µM (titrated, usually from 57.9 µM), for the others: at the highest dose signal change, negative = less light. 410,000 compounds, 1.2% hits. AID 1159524; active = well fitted falling curve with a large enough effect; inconclusive = small, poorly fitted or top-dose-only effect; inactive = no such curve, though single readings can be large or run the other way; tested in HEK293T cells; also: % is scaled to controls: 0 for no effect and ±100 for the full control effect; nearly all actives have a fitted effect of over 45% in size; luciferase light after 4 h
# MARV entry inh: blocks Marburg virus binding to or entry into cells | Marburg virus pseudotyped entry inhibition, cell reporter; control for the full effect not named in the record; about a third of the inactives were read at about 46 µM | Potency, µM (highest dose often 37.8 µM), without a hit: at the highest dose activity change, negative = inhibition, hits mostly inhibitors | 300,000 compounds, 1.8% hits | AID 540276; active = well fitted inhibition curve with a large enough effect; inconclusive = small, poorly fitted or top-dose-only effect, or effect the other way; inactive = flat fitted curve, though single readings scatter; tested in HEK293 cells; about a fifth of its hits are not listed in these tables; also: % is scaled to controls: 0 for no effect and ±100 for the full control effect; luciferase read-out
# Cruzain inh noDet: inhibitors of Trypanosoma cruzi cruzain without detergent. 200,000 compounds, 2.3% hits. P25779. Potency, µM, inactives show max response, negative = inhibition, most hits filed as inhibitors. purified cruzain, Z-FR-AMC fluorescence, no detergent. AID 1476;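 also: plate controls were enzyme without inhibitor for no effect and buffer without enzyme for full effect; nearly all actives have a fitted effect of over 40% in size; top concentration of the series not given in the record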
# Target sequence (P25779 123-467 limits assumed): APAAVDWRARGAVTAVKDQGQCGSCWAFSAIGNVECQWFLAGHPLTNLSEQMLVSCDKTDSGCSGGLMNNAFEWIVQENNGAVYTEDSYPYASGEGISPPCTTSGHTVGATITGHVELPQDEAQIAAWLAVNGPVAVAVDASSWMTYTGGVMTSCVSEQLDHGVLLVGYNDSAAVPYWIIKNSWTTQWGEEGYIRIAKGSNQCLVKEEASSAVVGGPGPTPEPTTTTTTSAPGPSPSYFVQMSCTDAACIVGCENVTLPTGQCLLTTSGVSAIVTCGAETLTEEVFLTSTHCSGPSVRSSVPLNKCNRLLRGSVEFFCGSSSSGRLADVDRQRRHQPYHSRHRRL
#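 Detergent-free condition (0.00005% Triton X-100) in acetate buffer pH 5.5 with DTT. 1.5 nM enzyme and compound were pre-mixed 15 min, then 2 uM Z-FR-AMC substrate added; reaction progress from fluorescence change between first and third reads (60 s).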
# Cruzain inh Det: inhibitors of Trypanosoma cruzi cruzain with detergent. P25779. purified cruzain, Z-FR-AMC fluorescence, 0.01% Triton. Potency, µM, for inactives: max response, negative = inhibition, actives largely listed as inhibitors. 200,000 compounds, 0.43% hits;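 also: plate controls were neutral wells for no effect and buffer without enzyme for full effect; nearly all actives have a fitted effect of over 40% in size; top concentration of the series not given in the record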
#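 In this qHTS format, compounds are incubated with 1.5 nM cruzain for 15 min at room temperature before 2 uM Z-FR-AMC is added. Release of AMC is followed at 360/450 nm, and progress is taken as the 60 s fluorescence difference.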
# RE007 growth inh: less growth of the S. pombe RE007 Vpr strain; S. pombe RE007 Vpr strain, BacTiter-Glo ATP luminescence, 24 h; control for the full effect not named in the record; 360,000 compounds, 0.21% hits; Potency, µM (series often up to 92.2 µM), without a hit: at the highest dose activity change, negative = less growth; active = well fitted falling curve with a large enough effect; inconclusive = small, poorly fitted or top-dose-only effect; inactive = no such curve, though single readings can be large or run the other way;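 also: % is scaled to controls: 0 for no effect and ±100 for the full control effect; nearly all actives have a fitted effect of over 50% in size; the assay follows cell death caused by Vpr and the record does not say whether a fall means rescue or toxicity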
#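 Fission yeast RE007 carrying one integrated HIV-1 vpr copy, seeded at OD 0.01 in PMG+AL medium with 23 nL pinned compound. Grown 24 h at 30 degrees; viability read by BacTiter-Glo luminescence after 5 min.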
# SARS PLP yeast: SARS-CoV PLP inhibition in yeast | S. cerevisiae expressing SARS-CoV PLpro, growth rescue; control for the full effect not named in the record | Potency, µM (top dose mostly 32.9 µM), without a hit: at the top dose activity, positive = growth rescue | 330,000 compounds, 0.19% hits; active means well fitted rising curve with a large enough effect; inconclusive means small, poorly fitted or top-dose-only effect; inactive means no such curve, though single readings can be large or run the other way; also: 0% is about no effect; nearly all actives have a fitted effect of over 55% in size; growth read by luminescence after 48 h
# Numbers without * were called inactive; ? = inconclusive; · = not tested or not shown; & = joins results of further samples; [ ] = another dose, or the depositor's remark. Unless noted, calls follow the shape of the dose curve; as a rule, active = well fitted curve in the direction sought with a large enough effect; inconclusive = small, poorly fitted or top-dose-only effect, or another doubt; inactive = no such curve, though single readings can be large; an effect the other way counts as inactive or inconclusive. Potency is read from the fitted curve at half-maximal effect.
# Values run as follows: 2A StopGo | MARV entry inh | Cruzain inh noDet | Cruzain inh Det | RE007 growth inh | SARS PLP yeast
C=CCN1C(=O)C(CC(C)C)NC1=S (stereo not given)
    · | · | 1% | 1.2% | · | ·
C[C@H]1[C@H](C)CC[C@]2(C(=O)O)CC[C@]3(C)C(=CCC4[C@@]5(C)C[C@@H](O)[C@H](O)[C@@](C)(CO)[C@@H]5CC[C@]43C)[C@H]12 (stereo not given in full)
    · | · | ? | 3.6% | · | ·
COC(=O)c1cccnc1
    · | · | -1% | -0.1% | · | ·
CC(=O)[C@@H]1CC[C@@H]2[C@@H]3C[C@H](C)C4=CC(=O)CC[C@@]4(C)[C@H]3[C@H](O)C[C@]21C
    · | · | 5% | -4.0% | · | ·
Cc1c(C(=O)O)c(O)cc2c1C(=O)c1c(O)c([C@H]3O[C@H](CO)[C@@H](O)[C@H](O)[C@H]3O)c(O)c(O)c1C2=O
    · | · | -2%&-20%&-4% | -6.9%&-4.5%&-11% | · | ·
O=P(O)(O)O
    · | · | -8% | 2.1% | · | ·
O=C1NC(=O)[C@@]2(CCOc3ccc(F)cc32)N1
    · | · | -3% | -4.4% | · | ·
COc1ccc(-c2cc(=O)c3c(O)cc(O[C@H]4OC(COC5OC(C)C(O)C(O)[C@H]5O)C(O)C(O)C4O)cc3o2)cc1O (stereo not given in full)
    · | · | 9% | -19% | · | ·
CCCOC(=O)c1ccccc1
    · | · | 0% | 3.3% | · | ·
O=C(O)CCC/C=C\C[C@H]1C(=O)C[C@@H](O)[C@@H]1/C=C/[C@@H](O)CCc1ccccc1
    · | · | -3% | 5.5% | · | ·
CC1(C)OC2CC(=O)OCC23C1CC(=O)C1(C)C3CC[C@@]2(C)[C@H](c3ccoc3)OC(=O)C3OC312 (stereo not given in full)
    · | · | -2% | 4.3% | · | ·
Nc1c2c(nc3ccccc13)CCC[C@H]2O
    · | ? | · | · | · | ·
NS(=O)(=O)c1cc2c(cc1C(F)(F)F)N[C@H](Cc1ccccc1)NS2(=O)=O
    · | 12% | -11% | -0.2% | · | ·
NC(=O)n1c(O)c(C(=O)c2cccs2)c2cc(Cl)ccc21
    ? | · | · | · | · | ·
CC[C@H]1OC(=O)C[C@@H](O)[C@H](C)[C@@H](O[C@@H]2O[C@H](C)[C@@H](O)[C@H](N(C)C)[C@H]2O)[C@@H](CCN2C[C@H](C)C[C@H](C)C2)C[C@@H](C)C(=O)/C=C/C(C)=C/[C@@H]1CO[C@@H]1O[C@H](C)[C@@H](O)[C@@H](OC)[C@H]1OC
    -12% | · | · | · | · | ·
CC(=O)NCCCCCC(=O)O
    32%[activator] | · | -3% | 3.0% | · | ·
O=C(Cn1ccnc1[N+](=O)[O-])NCCO
    -10% | · | 1%&-6% | 0.0%&-8.8% | · | ·
CCCC(NC(C)C(=O)N1C(C(=O)O)CC2CCCCC21)C(=O)OCC (stereo not given)
    26% | · | -2% | 3.2% | · | ·
CN(C)CCCSc1ccccc1NC(=O)/C=C\c1ccccc1
    -5% | · | 4% | 0.0% | · | ·
C=CC(C)(O)CC/C=C(\C)CCC=C(C)C (stereo not given)
    3% | · | 0% | 2.9% | · | ·
C=CCSCC=C
    4% | · | 1% | 1.7% | · | ·
CCCCCC(=O)O[C@@]1(C(C)=O)CCC2C3CCC4=CC(=O)CC[C@@]4(C)C3CC[C@]21C (stereo not given in full)
    ? | · | 17% | -6.3% | · | ·
CCN(CC)C[C@@H]1CCCCN1CC(=O)N1c2ccccc2C(=O)Nc2cccnc21
    -14% | · | 3% | -0.9% | · | ·
O=c1cc(-c2ccc(O)cc2)oc2cc(O)ccc12
    40%[activator] | · | 9% | 2.2% | · | ·
Nc1nccs1
    -9% | · | 14%&1% | 3.4%&10% | · | ·
O=C(O)CN1C(=O)c2cccc3cccc(c23)C1=O
    -7%[97.4 µM] | · | -11% | -1.7% | · | ·
COc1c(O)cc2c(c1O)C1OC(CO)C(O)C(O)C1OC2=O (stereo not given)
    -16% | · | · | · | 0%[18.4 µM] | ·
CC(=O)N1C[C@H](O)C[C@H]1C(=O)O
    -16% | · | · | · | 23% | ·
CCC[C@H](N[C@@H](C)C(=O)N1[C@H](C(=O)O)C[C@@H]2CCCC[C@@H]21)C(=O)OCC
    -20% | · | · | · | 10%[18.4 µM] | ·
COc1cncc(C#Cc2ccccn2)c1
    27% | · | · | · | -11% | ·
O=c1cc[nH]c(=O)[nH]1
    -13% | · | · | · | -7%[18.4 µM] | ·
O=C(O)[C@@H]1[C@H]2C[C@H]3c4[nH]c5ccccc5c4CCN3C[C@@H]2CC[C@@H]1O
    -10% | · | · | · | 2%[18.4 µM] | ·
CC(C)=CC(=O)O[C@@H]1Cc2cc3ccc(=O)oc3cc2OC1(C)C
    -12% | · | · | · | 19% | 3%
CC1(C)O[C@H]2CC(=O)OCC23[C@H]2CC[C@@]4(C)[C@H](c5ccoc5)OC(=O)[C@H]5O[C@]54[C@]2(C)C(=O)C[C@@H]13 (stereo not given in full)
    -20% | · | · | · | -5% | 0%
C=C1c2cccc(O)c2C(=O)C2C(=O)[C@]3(O)C(=O)C(C(N)=O)C(=O)[C@@H](N(C)C)[C@@H]3[C@@H](O)[C@H]12 (stereo not given in full)
    -24% | · | · | · | -2% | 17%

# Structures listed so far that contain nitrogen in an aromatic ring:
# Values run as follows: 2A StopGo | MARV entry inh | Cruzain inh noDet | Cruzain inh Det | RE007 growth inh | SARS PLP yeast
COC(=O)c1cccnc1
    · | · | -1% | -0.1% | · | ·
Nc1c2c(nc3ccccc13)CCC[C@H]2O
    · | ? | · | · | · | ·
NC(=O)n1c(O)c(C(=O)c2cccs2)c2cc(Cl)ccc21
    ? | · | · | · | · | ·
O=C(Cn1ccnc1[N+](=O)[O-])NCCO
    -10% | · | 1%&-6% | 0.0%&-8.8% | · | ·
CCN(CC)C[C@@H]1CCCCN1CC(=O)N1c2ccccc2C(=O)Nc2cccnc21
    -14% | · | 3% | -0.9% | · | ·
Nc1nccs1
    -9% | · | 14%&1% | 3.4%&10% | · | ·
COc1cncc(C#Cc2ccccn2)c1
    27% | · | · | · | -11% | ·
O=c1cc[nH]c(=O)[nH]1
    -13% | · | · | · | -7%[18.4 µM] | ·
O=C(O)[C@@H]1[C@H]2C[C@H]3c4[nH]c5ccccc5c4CCN3C[C@@H]2CC[C@@H]1O
    -10% | · | · | · | 2%[18.4 µM] | ·

# An excerpt; rates above refer to the full screens.
